Source: PubChem (National Center for Advancing Translational Sciences (NCATS))
TRPV1 PAM: human TRPV1 potentiation | TRPV1-expressing cells, Fluo-8 calcium influx, capsaicin EC20 potentiation; host cell line not named in the record; control for the full effect not named in the record | potentiation, % at 8.33 µM | actives 0.02% (n = 320,000); active means potentiation above 80%; inconclusive means 30% to 80%; inactive means below 30%; also: 0% is about no effect
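Fluo-8 calcium influx in TRPV1-expressing cells, kinetic read (ex 480/em 520 nm). Compound added and read 3 min for agonist activity, followed by capsaicin at EC20 final and 2 min further read for enhancement.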
ClpP mod: qHTS Assay for Activators of ClpP; actives 1.9% (n = 340,000); AID 651965, 2013; purified B. subtilis ClpP, FRET peptide cleavage, 20 min; ATP-dependent Clp protease proteolytic subunit (Bacillus subtilis (strain 168)), P80244; Potency, µM (doses to about 57.5 µM), inactives show top-dose activity change, negative = active; active = well fitted falling curve with a large enough effect; inconclusive = small, poorly fitted or top-dose-only effect; inactive = no such curve, though single readings can be large or run the other way; also: potency is read from the fitted curve at half-maximal effect; the source files actives as falling curves though it sought activators and does not explain the sign; nearly all actives have a fitted effect of over 65% in size; many hits overshoot -100%
Target sequence (P80244 whole entry, looked up): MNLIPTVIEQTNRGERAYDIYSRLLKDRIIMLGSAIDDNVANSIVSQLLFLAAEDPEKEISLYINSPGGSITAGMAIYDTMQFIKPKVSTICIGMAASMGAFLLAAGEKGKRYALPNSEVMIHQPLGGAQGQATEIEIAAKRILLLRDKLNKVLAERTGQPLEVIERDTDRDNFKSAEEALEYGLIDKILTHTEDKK
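FRET quenching reversal measured ClpP activation: 10 microg/mL B. subtilis ClpP at pH 8 with the FRET-FV decapeptide, read at 430 nm after 320 nm excitation. The 20-min minus 0-min signal was scaled between DMSO/no-enzyme wells and ADEP (5.8 microM final).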
Menin-MLL FL inh: displaces fluorescein MLL peptide from human menin; Fluorescence polarization, fluorescein-MLL peptide displacement from menin; FP activity change, % at 61.4 µM; 290,000 tested, under 10 active; AID 1766; inconclusive = falling polarisation curve, or a change in total fluorescence; inactive = total fluorescence flat and polarisation flat or rising; no compound was filed as active; the % refers to the polarisation; negative = inhibition;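 also: % of control where 0% means no effect; inhibitors lower the polarisation; unlabelled MLL peptide was the positive control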
PINK1 expr mod: PINK1 expression modulation. PINK1 immunofluorescence, high-content cytometry, 24 h. Potency, µM (top dose mostly 76.6 µM), for the others: top-dose activation (PINK1 increase), actives largely listed as activators. actives 0.2% (n = 410,000); active = well fitted activation curve with a large enough effect; inconclusive = small, poorly fitted or top-dose-only effect; inactive = flat fitted curve, though single readings scatter; cell line not stated here;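 also: potency is read from the fitted curve at half-maximal effect; % of control where 0% means no effect; nearly all actives have a fitted effect of over 65% in size; a mitochondrial uncoupler was the plate control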
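PINK1 protein, normally rapidly degraded, was detected by immunofluorescence after 24 hour compound treatment of a stable cell line. Titration data (5 concentrations) came from laser-scanning cytometry, with CCCP-treated wells as controls.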
Sfp PPTase inh: blocks B. subtilis Sfp PPTase activity | Potency, µM, for the others: max response, negative = inhibition, most hits filed as inhibitors | Q9F4F7 | actives 3.5% (n = 310,000) | Biochemical Sfp PPTase activity, qHTS | AID 1490; active = well fitted inhibition curve with a large enough effect; inconclusive = small, poorly fitted or top-dose-only effect, or another doubt; inactive = no such curve, though single readings can be large or run the other way;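 also: the enzyme is Sfp with the accession as filed and its product quenches rhodamine fluorescence; potency is read from the fitted curve at half-maximal effect; 0% = enzyme reaction without inhibitor and -100% = no enzyme wells; top concentration of the series not given in the record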
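With Hepes-Na pH 7.6 buffer containing 10 mM MgCl2, Sfp (15 nM) modified BHQ-2-YbbR (12.5 uM) using rhodamine-CoA (5 uM). Two reads 30 minutes apart at 525/598 nm yielded each well's rate.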
TRPML1 inh: blocks the human TRPML1 channel. Q9GZU1. TRPML1-inducible cells, Ca2+ dye fluorescence, FDSS; active compounds read low; inhibition of EC80 agonist-evoked calcium signal. actives 0.02% (n = 390,000). activity change, negative = inhibition, % (concentration not given with the values). AID 624415; in the data active means activity change below about -50%; inconclusive means about -30% to -50%; inactive means above about -30%;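 also: stimulus is agonist 54-4 at its EC80 concentration; % is scaled to controls: 0 for no effect and ±100 for the full control effect; the text of the record puts the active cut at -80%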
Target sequence (Q9GZU1 whole entry, looked up): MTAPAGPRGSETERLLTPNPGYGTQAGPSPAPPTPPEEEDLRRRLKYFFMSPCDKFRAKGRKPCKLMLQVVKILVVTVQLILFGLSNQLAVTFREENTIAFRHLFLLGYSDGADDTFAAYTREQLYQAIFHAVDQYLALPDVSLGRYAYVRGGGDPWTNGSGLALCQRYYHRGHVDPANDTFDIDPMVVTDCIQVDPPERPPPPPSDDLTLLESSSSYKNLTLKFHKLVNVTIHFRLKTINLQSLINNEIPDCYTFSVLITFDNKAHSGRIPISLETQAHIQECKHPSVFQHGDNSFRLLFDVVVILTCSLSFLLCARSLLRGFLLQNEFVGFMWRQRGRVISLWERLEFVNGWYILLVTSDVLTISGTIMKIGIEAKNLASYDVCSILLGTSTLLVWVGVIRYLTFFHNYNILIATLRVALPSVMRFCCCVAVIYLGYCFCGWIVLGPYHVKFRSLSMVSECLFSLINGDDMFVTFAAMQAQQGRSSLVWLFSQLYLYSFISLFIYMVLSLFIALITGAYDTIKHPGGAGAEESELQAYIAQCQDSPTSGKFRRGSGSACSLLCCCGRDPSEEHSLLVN
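TRPML1-DL cells, Tet-induced overnight (~16 h, 37 °C) at 1,500 cells/well, were loaded with Ca8 no-wash dye plus quencher for 45-90 min at room temperature. Compounds were pinned during FDSS kinetic reading; agonist 54-4 at EC80 (4 uM final) then added.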
TRPML1 ag: activates the human TRPML1 channel. AID 624414. activation, % (test concentration not listed). TRPML1-expressing cells, Ca2+ dye fluorescence, FDSS; host cell line not named in the record; reference of the full effect not given here. actives 0.12% (n = 410,000); in the data active = activation above about 50%; inconclusive = about 30% to 50%; inactive = below about 30%; also: 0% is about no effect; the text of the record puts the active cut at 80%
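Calcium fluorescence on an FDSS kinetic reader gave the read-out. Tet-induced TRPML1-DL cells were plated overnight, dye-loaded (Ca8 with quencher, 45-90 min, room temperature, dark), then read 110 s after compound addition, and again 110 s after 4uM final 54-4 (EC80).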
* hit, by the source's call; ? = inconclusive; nt = not tested or not shown; & = joins results of further samples; [ ] = dose if it differs, or a comment.

SMILES	TRPV1 PAM	ClpP mod	Menin-MLL FL inh	PINK1 expr mod	Sfp PPTase inh	TRPML1 inh	TRPML1 ag
CCCCCC(=O)Nc1nnn(CCC)n1	-19.0	-0.7%	-4.6	0.5%[38.3 µM]	5.7%	14.0	0.5
COc1ccc(-c2cc(C(=O)Nc3cc(C)n(Cc4ccc(Cl)cc4)n3)no2)cc1OC	9.1	296.2%	3.0	21.8%[38.3 µM]	70.8µM*	4.3	0.5
CCC(NC(=O)c1ccccc1NC(=O)C(C)(C)C)C(=O)N1CCCC1 (centres undefined)	13.7	-10.7%	0.6	1.0%	15.3%	-10.2	-0.1
CCOC(=O)c1cnc2c(c(C)nn2-c2ccc(C)cc2)c1Cl	10.2	?	-0.7	1.5%	-7.6%	12.1	-0.3
COc1ccc(CCN(C)C(=O)c2cc(S(=O)(=O)N3CCCCC3)ccc2Cl)cc1OC	-10.9	nt	nt	0.8%	nt	-7.6	-0.4
CC[C@]12c3[nH]c4cc(-c5ccco5)ccc4c3CCN1C(=O)[C@@H](CC(=O)NC(C)(C)C)C[C@@H]2C(=O)N1CCN(C(=O)c2ccco2)CC1	nt	-17.5%	nt	0.8%	nt	-14.7	0.3
C/C=C/c1ccc(OCC(=O)OCc2csc(Nc3ccc(C)cc3)n2)c(OC)c1	17.7	-1.6%	14.6	4.9%	-1.1%	-2.5	0.1
C#CCn1c(=NC(=O)CN2C(=O)CCC2=O)sc2cc(S(N)(=O)=O)ccc21	7.6	-23.1%	9.2	3.2%	2.3%	-8.5	-0.2
CC(C)c1ccc2[nH]c(O)c(N=NC(=O)c3cccc(S(=O)(=O)Nc4ccc(Cl)cc4)c3)c2c1	-3.5	1.2%	2.5	8.4%	20.2%	-16.9	-0.6
C=CCNC(=O)C1CCCN(S(=O)(=O)c2ccc(-n3cnnn3)cc2)C1 (centres undefined)	5.6	nt	nt	2.7%	13.5%	-1.4	0.7
O=[N+]([O-])c1cnc2nc(-c3ccncc3)nn2c1O	5.4	nt	0.2	1.8%	17.6%	-7.2	0.1
CCOC(=O)C1(C)C=C(Nc2cccc(C(=O)O)c2)C(=O)N1c1ccccc1 (centres undefined)	nt	-5.7%	nt	-0.4%	nt	-2.4	-0.9
COc1ccc(C(=O)C2CCCN(C(=O)c3cnsn3)C2)c(C)c1 (centres undefined)	-9.6	-3.7%	-0.3	1.6%	30.7%[activator]	16.1	0.5
CCOC(=O)C1=C(N)N2C(=O)C(C)SC2=C(C(=O)OC)C1c1cccc(OC)c1 (centres undefined)	-0.7	-2.8%	0.0	-2.6%	-8.3%	-16.6	0.1
Cc1ccc(OCC(=O)N2CCc3ccccc32)cc1	-9.8	nt	2.5	0.5%	-6.3%	11.1	0.9
COc1cc(/C=C2/SC(=NCc3ccccc3)N(Cc3ccccc3)C2=O)ccc1O	-7.7	-4.0%	?	6.4%	6.3%	29.3	0.2
CCCn1c(=O)c2ccccc2n2c(SCCOc3ccc(C)cc3)nnc12	3.2	32.5%	0.9	nt	?	-5.7	0.5
CCc1ccc([C@@H]2CC=C(C(=O)O)[C@H](c3ccccc3)N2S(=O)(=O)c2ccc(C)cc2)cc1	16.5	1.8%	nt	-0.8%	nt	21.8	0.9
CCC(CC)n1[nH]c(=O)c2c(C)cc(C)nc21	-0.4	-3.2%	-1.2	2.5%	9.1%	-2.6	0.5
CCOc1ccc(-c2c(C(=O)N/N=C(\C)c3cccs3)nnn2-c2nonc2N)cc1	4.5	-10.5%	nt	29.0%	9.5%	21.7	0.7
O=C1c2cccc3cccc(c23)C(=O)N1c1nncs1	-9.8	15.8µM*	0.0	-1.4%	9.8%	7.0	-0.7
Cc1ccc(NP(=O)(c2ccc(N(C)C)cc2NC(=O)c2cccs2)N2CCOCC2)cc1Cl (centres undefined)	-2.4	-25.7%	1.4	10.6%	5.5%	0.5	-0.5
CC(C)N(Cc1ccccc1)C(=O)CCS(=O)(=O)c1ccc2c(c1)oc(=O)n2C	-11.9	1.2%&-1.8%	-0.7	-0.2%&-0.6%	4.4%	-1.6&-7.3	0.0&-0.1
CCOC(=O)c1[nH]c(C)c(C(=O)NCC2CCCO2)c1C (centres undefined)	-3.9	-2.1%	0.5	-0.3%	-28.8%	-12.7	-0.4
CCOc1ccc(Br)cc1CNCCSc1nnnn1-c1ccccc1	nt	-0.4%	nt	-1.1%	nt	38.5	11.7
Additional records.
SMILES	TRPV1 PAM	ClpP mod	Menin-MLL FL inh	PINK1 expr mod	Sfp PPTase inh	TRPML1 inh	TRPML1 ag
O=C(CSc1nc(=O)n2ccccc2n1)N1CCCc2ccccc21	4.2	2.6%	nt	-2.8%	nt	22.9	0.3
Cc1ccc(CC(=O)NNC(=O)c2ccncc2)cc1C	?	-3.8%	nt	1.5%	nt	-5.9	-0.3
CC(C)NC(=O)CN1CCN(Cc2nc(C(c3ccccc3)c3ccccc3)no2)CC1	-10.3	nt	7.4	0.1%	-4.6%	1.0	3.3
COc1cc(Cl)ccc1NC(=S)N(CCCN1CCOCC1)Cc1cn(C)c2ccccc12	-5.4	-0.3%	1.1	-3.4%	11.2µM*	-7.6	-0.5
CC(=O)N1CCc2cc(S(=O)(=O)NCCC(=O)NCCc3ccc(Cl)cc3)ccc21	2.8	0.2%	-0.6	-1.3%	6.6%	9.0	-0.2
Cc1ccc(-c2nnc(Nc3ccc(OCC(N)=O)cc3)c3ccccc23)cc1S(N)(=O)=O	-17.5	nt	1.2	3.2%	0.8%	-9.8	0.5
Cc1ccc(N=Cc2c(O)cc(C)oc2=O)c(C)c1	0.2	nt	?	-0.8%	11.0%	3.1	7.3
O=C(Nc1ccc(O)c(C(=O)O)c1)Oc1ccccc1	4.1	4.9%	-0.1	0.1%	?	-5.5	-0.2
Cc1ccc(S(=O)(=O)c2cnc(SCC(=O)Nc3cccc(Cl)c3)nc2N)cc1C	nt	-7.0%	nt	-0.3%	nt	-0.4	-0.1
CCc1ccc([C@@H]2C[C@H]3[C@@H](CN2S(=O)(=O)c2ccc(C)cc2)C(=O)C[C@@H](c2ccccc2F)N3S(=O)(=O)c2ccc(C)cc2)cc1	nt	1.5%	nt	3.7%	nt	11.6	0.2
CC(=O)Nc1nonc1NC(=O)CSc1nc2ccccc2o1	15.3	-0.3%	1.2	1.6%[38.3 µM]	?	0.8	-0.6
CC(=O)Nc1ccc(NC(=O)c2ccc3c(c2)CCN3S(=O)(=O)c2ccc(C)cc2)cc1	nt	-1.1%	nt	0.2%	nt	-1.4	0.0
COc1cc(Cl)c(S(=O)(=O)NCCN2CCOCC2)cc1Cl	4.5	-1.8%	3.6	-2.6%[38.3 µM]	13.9%	5.5	1.1
CC(C)CN1CCC(CNC(=O)CCc2nnc(Cc3c[nH]c4ccccc34)o2)CC1	10.1	1.8%	-4.7	-0.5%	-2.2%	-3.6	0.1
Cc1ccc(-c2csc3ncnc(SCC(=O)c4ccc5c(c4)OCCO5)c23)cc1	27.0	-2.1%	3.4	4.3%[38.3 µM]	-9.5%	-5.3	1.0
CSc1ccccc1C(=O)Nc1cccc(C)c1	3.4	-0.5%	1.4	7.7%[38.3 µM]	9.7%	-2.8	-0.8
CCN(CC(=O)NCc1cccs1)C(=O)c1cc(S(=O)(=O)N2CCCCC2)ccc1Cl	-7.0	-3.1%	nt	-1.9%	nt	4.6	0.9
Cn1c(Cc2ccccc2)nnc1SCC(=O)Nc1cccc(S(=O)(=O)NC2=NCCCCC2)c1	4.5	0.7%	-6.8	0.5%	18.0%	15.7	0.9
O=C(NC1(C(F)(F)F)C(=O)Nc2c1c(=O)[nH]c(=O)n2-c1ccc(Cl)cc1)c1ccccc1F (centres undefined)	nt	1.3%	nt	1.4%	nt	9.6	-0.1
Nc1n[nH]c(CO)n1	3.2	-2.8%	2.4	0.3%	9.5%	-3.4	0.0
CCCCN(CCCC)C1=Nc2ccccc2N/C1=C(/C#N)C(=O)OCC	0.3	-5.9%	?	?	1.8%	23.5	-0.5
Cc1ccc(NS(=O)(=O)c2cccc(C(=O)N3CCCC(C)C3)c2)cc1 (centres undefined)	-2.3	-1.9%	nt	0.4%	nt	1.0	-0.9
COc1cc2c(cc1OC)CN(C(=S)NC(=O)c1ccccc1)CC2	-15.4	nt	1.8	-1.3%	17.1%	-17.2	1.3
CC1=NN(C(C#N)c2ccccc2)C(C)(C)C1 (centres undefined)	-3.3	-0.5%	5.8	2.3%	4.6%	-14.4	0.3
COc1ccccc1CCNS(=O)(=O)c1c(C)n(C)c(=O)n(C)c1=O	4.9	-2.6%	-0.5	-1.0%	16.4%	4.4	-0.3
Later entries
SMILES	TRPV1 PAM	ClpP mod	Menin-MLL FL inh	PINK1 expr mod	Sfp PPTase inh	TRPML1 inh	TRPML1 ag
CCn1cc(/C=C(\NC(=O)c2ccccc2F)C(=O)N2CCN(C)CC2)c2ccccc21	nt	-2.2%	nt	0.5%	nt	7.2	-0.6
CC(C)(O)C#Cc1ccc(CN2CCN(C3CCCCC3)C(CCO)C2)cc1 (centres undefined)	11.2	-1.0%	-4.3	-2.2%	18.1%	0.6	4.0
CCn1nc(C)c(CN2CCC(C(=O)Nc3cccc(-c4cccc(F)c4)c3)CC2)c1C	28.0	-2.4%	nt	0.4%	-1.2%	20.7	12.5
CCOC(=O)c1oc2cc(OCC(N)=O)ccc2c(=O)c1-c1ccc(OC)c(OC)c1	2.0&8.3	0.5%	-1.1&8.1	6.7%[38.3 µM]	9.4%&-3.1%	-3.9	0.4
C=CCNC(=S)NNC(=O)c1ccccc1	5.5	-0.9%	0.5	-2.0%	18.3%	16.1	2.3
O=C(NCCc1ccc(Cl)cc1)C1CCN(S(=O)(=O)N2CCC3(CC2)OCCO3)CC1	?	0.5%	1.2	2.5%[38.3 µM]	14.5%	-2.3	-0.5
O=C1NC[C@H](CCCCN2CCN(Cc3ccccc3)C(=O)C2=O)N(Cc2ccccc2)C1=O	nt	-0.6%	nt	-0.9%	nt	nt	-0.3
Cc1cnc2c(c1SCC(=O)N(C)c1ccccc1)c(=O)n(C)c(=O)n2C	nt	1.6%	nt	0.3%	nt	-7.5	-0.2

Taken from above:
Value of `O=C1NC[C@H](CCCCN2CCN(Cc3ccccc3)C(=O)C2=O)N(Cc2ccccc2)C1=O` under ClpP mod: -0.6%
Value of `CCOC(=O)c1oc2cc(OCC(N)=O)ccc2c(=O)c1-c1ccc(OC)c(OC)c1` under TRPML1 inh: -3.9

Rows are unselected; 4.4% or so of the library scored in one or more.
